Source: PubChem
SARS PLP yeast: SARS-CoV PLP inhibition in yeast; S. cerevisiae expressing SARS-CoV PLpro, growth rescue; control for the full effect not named in the record; Potency, µM (doses to about 32.9 µM), inactives show top-dose activity, positive = growth rescue; 0.19% of 330,000 active; AID 485353; also: 0% is about no effect; nearly all actives have a fitted effect of over 55% in size; growth read by luminescence after 48 h
NS1 function inh: inhibitors of influenza NS1 protein function; Potency, µM (doses to about 46.1 µM), for the others: top-dose activity, positive = more growth; 0.4% of 270,000 active; AID 2326; S. cerevisiae slowed by influenza A NS1, growth recovery by OD600; also: actives are rising curves; nearly all actives have a fitted effect of over 50% in size
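Recovery from NS1-induced slow growth read by OD600 in budding yeast switched to galactose assay medium (pH 6.0, -URA) at 1:100 dilution. Compound 23 nl per well; the matching strain lacking NS1 serves as control.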
RE007 growth inh: less growth of the S. pombe RE007 Vpr strain. S. pombe RE007 Vpr strain, BacTiter-Glo ATP luminescence, 24 h; control for the full effect not named in the record. Potency, µM (highest dose often 92.2 µM), for the others: at the top dose activity change, negative = less growth. 0.21% of 360,000 active; active = well fitted falling curve with a large enough effect; inconclusive = small, poorly fitted or top-dose-only effect; inactive = no such curve, though single readings can be large or run the other way;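 also: % is scaled to controls: 0 for no effect and ±100 for the full control effect; nearly all actives have a fitted effect of over 50% in size; the assay follows cell death caused by Vpr and the record does not say whether a fall means rescue or toxicity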
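Fission yeast strain RE007, carrying one chromosomally integrated HIV-1 vpr copy, was seeded at OD 0.01 in PMG+AL medium with 23 nL pinned compound. After 24 h at 30 °C and 99% humidity, viability was read by BacTiter-Glo luminescence.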
Lassa entry inh: inhibitors of Lassa virus binding or cell entry; Lassa virus pseudotype entry inhibition, cell reporter; control for the full effect not named in the record; Potency, µM (doses to about 37.9 µM), for the others: top-dose activity change, negative = inhibition, usual class: inhibitors; 1.2% of 300,000 active; AID 540256; active means well fitted inhibition curve with a large enough effect; inconclusive means small, poorly fitted or top-dose-only effect, or effect the other way; inactive means flat fitted curve, though single readings scatter; tested in HEK293 cells; also: % is scaled to controls: 0 for no effect and ±100 for the full control effect; nearly all actives have a fitted effect of over 50% in size; luciferase read-out
MARV entry inh: Marburg virus entry inhibition. 1.8% of 300,000 active. Marburg virus pseudotyped entry inhibition, cell reporter; control for the full effect not named in the record; about a third of the inactives were read at about 46 µM. Potency, µM (doses to about 37.8 µM), for inactives: at the top dose activity change, negative = inhibition, hits mostly inhibitors. AID 540276; active = well fitted inhibition curve with a large enough effect; inconclusive = small, poorly fitted or top-dose-only effect, or effect the other way; inactive = flat fitted curve, though single readings scatter; tested in HEK293 cells; about a fifth of its hits are not listed in these tables; also: % is scaled to controls: 0 for no effect and ±100 for the full control effect; luciferase read-out
2A StopGo: lowers the luciferase signal of an FMDV 2A StopGo reporter; human cells with a luciferase reporter of 2A StopGo recoding; control for the full effect not named in the record; Potency, µM (highest dose often 57.9 µM), for inactives: at the highest dose signal change, negative = less light; 1.2% of 410,000 active; active = well fitted falling curve with a large enough effect; inconclusive = small, poorly fitted or top-dose-only effect; inactive = no such curve, though single readings can be large or run the other way; tested in HEK293T cells; also: % is scaled to controls: 0 for no effect and ±100 for the full control effect; nearly all actives have a fitted effect of over 45% in size; luciferase light after 4 h
Cruzain inh noDet: blocks cruzain activity in detergent-free assay; P25779; purified cruzain, Z-FR-AMC fluorescence, no detergent; Potency, µM, for inactives: max response, negative = inhibition, usual class: inhibitors; 2.3% of 200,000 active; AID 1476; active = well fitted curve in the direction sought with a large enough effect; inconclusive = small, poorly fitted or top-dose-only effect, or another doubt; inactive = no such curve, though single readings can be large; an effect the other way counts as inactive or inconclusive;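 also: plate controls were enzyme without inhibitor for no effect and buffer without enzyme for full effect; nearly all actives have a fitted effect of over 40% in size; top concentration of the series not given in the record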
Target sequence (P25779 123-467 limits assumed): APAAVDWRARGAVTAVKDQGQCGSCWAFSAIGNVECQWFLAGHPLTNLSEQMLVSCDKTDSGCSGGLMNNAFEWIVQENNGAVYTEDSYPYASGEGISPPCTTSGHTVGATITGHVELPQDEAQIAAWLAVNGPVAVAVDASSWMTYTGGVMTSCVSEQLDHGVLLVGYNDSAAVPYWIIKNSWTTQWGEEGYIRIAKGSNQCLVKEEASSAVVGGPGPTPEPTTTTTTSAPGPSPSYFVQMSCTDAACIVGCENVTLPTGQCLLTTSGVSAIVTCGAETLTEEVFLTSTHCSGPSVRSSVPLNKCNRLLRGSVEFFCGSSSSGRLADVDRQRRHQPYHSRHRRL
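Detergent-free condition (0.00005% Triton X-100) in acetate buffer pH 5.5 with DTT. 1.5 nM enzyme and compound were pre-mixed 15 min, then 2 uM Z-FR-AMC substrate added; reaction progress from fluorescence change between first and third reads (60 s).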
Cruzain Triton: inhibitors of Trypanosoma cruzi cruzain with detergent. Potency, µM, for inactives: max response, negative = inhibition, most hits filed as inhibitors. 0.43% of 200,000 active. AID 1478. P25779. purified cruzain, Z-FR-AMC fluorescence, 0.01% Triton; active = well fitted curve in the direction sought with a large enough effect; inconclusive = small, poorly fitted or top-dose-only effect, or another doubt; inactive = no such curve, though single readings can be large; an effect the other way counts as inactive or inconclusive;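 also: plate controls were neutral wells for no effect and buffer without enzyme for full effect; nearly all actives have a fitted effect of over 40% in size; top concentration of the series not given in the record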
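Z-FR-AMC hydrolysis (2 uM substrate) by cruzain (1.5 nM) monitored kinetically at ex 360/em 450 nm after 15 min room-temperature compound exposure; 0.01% Triton X-100, pH 5.5, 5 mM DTT.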
An asterisk follows results filed as active; ? = inconclusive; . = no result given; & = joins results of further samples; [ ] = dose if it differs, or a comment. Unless noted, calls follow the shape of the dose curve; as a rule, active means well fitted rising curve with a large enough effect; inconclusive means small, poorly fitted or top-dose-only effect; inactive means no such curve, though single readings can be large or run the other way. Potency is read from the fitted curve at half-maximal effect. Rows were taken by chance, and some 4.7% of all compounds hit somewhere here.

SMILES | SARS PLP yeast | NS1 function inh | RE007 growth inh | Lassa entry inh | MARV entry inh | 2A StopGo | Cruzain inh noDet | Cruzain Triton
CCOC(=O)CNC(=O)Cn1cnc2sc(C)c(S(=O)(=O)N3CCOCC3)c2c1=O | 1.1% | 4.9% | -1.9% | ? | 1.0%[46.1 µM] | 0.9% | . | .
Cc1csc(NC(=O)c2ccc(=O)[nH]c2)n1 | -2.0% | -0.2% | 5.9% | . | . | -5.2% | . | .
Oc1ccc(Cl)c(Cl)c1Cl | -19.8% | . | -5.9% | . | . | -25.6% | -2.9% | -3.8%
Cc1ccc2c(CNCc3ccccc3)cc(=O)oc2c1 | -12.5% | -3.2% | -20.6% | -18.8% | ? | -8.3% | . | .
O=C(CCNS(=O)(=O)c1ccc(Br)cc1)NCCc1ccccc1 | -4.2% | -15.1% | 2.9% | . | . | 11.8% | . | .
CC(C(=O)O)N1C(=O)c2cccc3cccc1c23 (configuration not stated) | 2.4% | 14.1µM* | 10.8% | 2.4% | 7.2% | -23.4% | -14.6% | -0.1%
CSc1nc(C)cc(NC(N)=O)n1 | 2.1% | -8.4% | -3.1% | 10.9% | -0.4%&-0.4% | -18.9% | -2.0% | 3.5%
O=C(Nc1cc(Cl)ccc1Oc1ccccc1)c1cnccn1 | 1.2% | -5.8% | 2.1% | -3.8% | -9.2% | -0.7% | 9.6% | 2.2%
COc1ccc(NC(C)=O)cc1NC(C)C(=O)Nc1ccccc1F (configuration not stated) | -3.3% | 0.3% | 5.3% | 7.2% | -13.1% | 22.4% | -5.6% | 1.0%
COc1cccc(N2CCN(C3C4CC5CC(C4)CC3C5)CC2)c1 (configuration not stated) | -6.5% | 0.6% | 2.0% | -8.1% | -21.4% | 14.9% | -3.9% | 1.8%
CCOC(=O)C1C(C(=O)OC)=C(c2ccc(OC)cc2)c2ccccc2N1S(=O)(=O)C(F)(F)F (configuration not stated) | -13.2% | . | 3.9% | . | . | ? | 29.2% | -2.5%
c1cncc(-c2nc(NCc3ccc4c(c3)OCO4)c3ccccc3n2)c1 | -3.0% | -5.9% | -18.1% | . | . | ? | . | .
CCOc1cc(C(=O)Nc2cccc(-c3nc4ccccc4o3)c2)cc(OCC)c1OCC | . | . | . | ? | -21.0%[46.1 µM] | 0.0% | -3.9% | -1.2%
CC(C)C(=O)Nc1ccc(NC(=O)c2ccc(COc3ccccc3)cc2)cc1 | 0.2% | 2.2% | 3.8% | -2.0% | ? | -5.3% | . | .
CC1CCCC(NC(=O)CCC(=O)NCc2ccccc2)C1C (configuration not stated) | -0.8% | 2.9% | -10.7% | . | . | 9.3% | . | .
CCOC(=O)C1=C(O)/C(=C\c2cc(C)n(-c3ccccc3F)c2C)N=C1C | 2.1% | . | -14.3% | 7.1% | ? | -0.2% | . | .
CCc1ccccc1NC(=O)NCCN1CCCCC1 | 5.3% | 10.8% | 9.7% | -26.3%[46.1 µM] | -22.9%[46.1 µM] | -6.9% | . | .
COc1cc(OC)cc(-c2cc3nc(C)c(CCC(=O)Nc4ccccc4OC)c(C)n3n2)c1 | . | . | . | ? | ? | ? | ? | -10.5%
CCc1ccc(NC(=O)C2C3CCC(O3)C2C(=O)O)cc1 (configuration not stated) | 0.8% | 10.6% | -1.4% | . | . | 19.1% | . | .
COC(=O)C1=C(C(=O)OC)[C@@H]2N(C)c3ccc(OC)cc3[C@@]23C[C@@H](C(=O)OC)N(C(=O)c2ccco2)C3=N1 | . | . | -11.8% | ? | 23.7%[14.2 µM] | -27.4% | . | .
N#CC(C#N)=C1CCCc2sccc21 | . | . | -22.3% | 4.6% | 12.3% | -19.2% | . | .
CCCSCC(=O)Nc1ncc2c(n1)-c1ccccc1CC2 | 0.0% | . | -9.6% | ? | 7.8%[46.1 µM] | 18.4% | . | .
COc1ccccc1CN1C[C@@H]2C[C@@H](C3=Cc4cc(Cl)ccc4OC3)N3CCC[C@@]23C1=O | -0.5% | 16.2% | -21.5% | . | . | -22.3% | . | .
Cc1ccc(C)c(OCCC(=O)OCC(=O)NC2CCS(=O)(=O)C2)c1 (configuration not stated) | -4.0% | . | -20.2% | 6.8% | 2.7% | -20.4% | . | .
CCC(C)NCCCOc1ccc(C)cc1OC (configuration not stated) | 0.5% | -1.7% | -3.2% | -5.0% | 10.4%[46.1 µM] | 4.7% | . | .
(further entries)
SMILES | SARS PLP yeast | NS1 function inh | RE007 growth inh | Lassa entry inh | MARV entry inh | 2A StopGo | Cruzain inh noDet | Cruzain Triton
CNC(=S)N(CCc1c(C)[nH]c2ccc(C)cc12)Cc1ccc(OC)c(OC)c1 | -10.8% | 24.5% | -9.2% | -17.7% | -23.3% | -19.4% | ? | -3.3%
COc1cc(OC)cc(-c2nc(-c3ccc(Br)cc3)no2)c1 | 6.1% | 6.9% | 5.8% | ? | ? | -3.4% | -9.5% | 10.8%
O=C(CCNS(=O)(=O)c1cccs1)Nc1nccs1 | 7.3% | 0.0% | 2.0% | 0.8% | 15.3% | -21.4% | -1.4% | 3.2%
O=C(CSCCc1ccccn1)Nc1ccc(Br)cn1 | -0.3% | -14.6% | -3.2% | 7.3% | 9.8% | 39.4%[activator] | -10.6% | 1.2%
Cc1ccc(NC2C(=O)NC(=O)NC2=O)cc1 | . | . | 13.5% | 21.6%[46.1 µM] | ? | 14.5% | . | .
COc1ccc(NC(=O)C2=CC(c3cccs3)=NS(=O)(=O)N2C)cc1 | 1.3% | 7.1% | -9.1% | 13.1%[46.1 µM] | -15.4%[46.1 µM] | 0.0%&-14.8% | ? | -4.0%
CCOc1ccc(C(CC(=O)Nc2ccc(C(=O)OC)cc2)N2Cc3ccccc3C2=O)cc1OC (configuration not stated) | . | . | . | 8.6%[46.1 µM] | . | -9.4% | -2.9% | -1.0%
COc1cccc(C2CC(=O)Nc3cc4c(cc32)OCCO4)c1OC(C)C (configuration not stated) | 5.4% | -33.3% | -2.2% | . | . | ? | -2.5% | 3.4%
COc1ccc(N2Cc3cccc(C(=O)NC(C)CCc4ccco4)c3C2=O)cc1 (configuration not stated) | -10.6% | 7.1% | 15.7% | . | 5.6% | 14.7% | 12.6% | -24.7%
CCC(/C=N/NC(=O)c1ccccc1F)CC | -1.8% | . | -6.7% | . | 20.9%[46.1 µM] | 31.4%[activator] | . | .
COc1cccc(NC(=O)COc2cc(O)c3c(c2)OC(C)(C)CC3=O)c1 | -9.5% | -42.2% | -7.4% | . | . | -1.5% | . | .
CC(=O)N1C2=CCCC3CCCCC23c2ccccc21 (configuration not stated) | . | . | 20.0% | 20.4% | ? | 0.0% | . | .
CS(=O)(=O)N(CC(=O)N1CCOCC1)c1cc(Cl)ccc1Cl | 2.1% | 14.5% | -1.0% | . | . | -10.7% | . | .
O=C(O)c1ccccc1C(=O)NNc1ccc(F)cc1 | 0.6% | -56.0% | 299.4% | -3.3% | -21.1% | -21.5% | 6.9% | 6.6%
Cc1ccc(NC(=O)c2oc3ccccc3c2NC(=O)c2ccc3c(c2)OCO3)cc1 | 4.0% | -7.9% | -18.9% | 12.8% | -2.8% | 43.3%[activator] | ? | 1.5%
C=CCn1cc(F)c(=O)n(CC=C)c1=O | -1.7% | . | -13.3% | -7.7%[46.1 µM] | -6.9%[46.1 µM] | 9.6% | . | .
Cc1nnc(NC(=O)c2c(F)cccc2F)s1 | 0.3% | 2.1% | 2.5% | . | . | -17.2% | 2.4% | 0.8%
Cc1cccc(OCC(=O)N=Nc2c(O)[nH]c3ccc([N+](=O)[O-])cc23)c1 | -0.4% | 4.7% | -10.1% | . | . | -22.4% | . | .
O=C(NCCO[N+](=O)[O-])c1cccnc1 | 4.5% | . | 3.1% | . | . | -19.2%&-8.4% | 5.0% | -3.9%
CCc1sc(C(=O)NNC(=O)c2cncc(Br)c2)cc1C | 0.3% | . | 8.0% | -8.8% | 8.1% | 0.6% | . | .
O=C(CCN1C(=O)c2ccccc2C1=O)Nc1sc2c(c1C(=O)NCc1ccco1)CCCC2 | 1.8% | 16.6% | 39.2% | 0.7% | -25.2% | 9.8% | ? | 1.3%
O=C(NCCc1cccc(Cl)c1)c1cccc([N+](=O)[O-])c1 | -16.8% | -3.0% | 5.2% | 14.6% | 8.9% | -18.5% | -1.7% | 0.6%
Cc1cc(C(=O)CSc2cccc[n+]2[O-])c(C)n1-c1ccccc1 | -0.6% | -50.1% | -14.4% | . | ? | -38.6% | . | .
CCCCN(CC)Cc1ccc(CNC(=O)Nc2ccc(F)cc2)o1 | 7.3% | 8.2% | -15.9% | 6.1% | 1.7% | -25.0% | -3.2% | 0.7%
CCOc1ccc(NC(=O)CCC(=O)c2ccc(OC)cc2)cc1 | -3.1% | -13.7% | 4.3% | . | . | -1.3% | . | .
The list continues.
SMILES | SARS PLP yeast | NS1 function inh | RE007 growth inh | Lassa entry inh | MARV entry inh | 2A StopGo | Cruzain inh noDet | Cruzain Triton
CCCCCCOc1ccc(N2C(=O)CC(SCCN)C2=O)cc1 (configuration not stated) | -16.5% | 12.0% | -13.3% | 2.4%[46.1 µM] | 18.1%[46.1 µM] | 13.4% | . | .
COC(=O)C1=C(C)N(c2cccc(C)c2)C(=O)/C1=C\c1cccs1 | -2.3% | -2.3% | -0.9% | -3.2% | 2.82µM* | 0.0% | ? | -3.2%
Cc1ccc(NC(=O)C2CC(=O)Nc3ncnn32)cc1Cl (configuration not stated) | -1.3% | ? | 9.9% | . | . | 0.5% | . | .
COc1ccccc1N1CCN(C(=O)c2oc3cc(C)c(C)cc3c2C)CC1 | -4.2% | -89.7% | -0.5% | -10.6% | ? | -22.3% | ? | -3.0%
CCCCCCCc1c(O)nc(SCC(=O)O)[nH]c1=O | 0.3% | 0.6% | 0.2% | . | . | -13.8% | . | .
COC(=O)C(CCSC)NC(=O)Cn1ncc2c(=O)oc3ccccc3c21 (configuration not stated) | 4.1% | -1.1% | 2.8% | . | . | -12.5% | 12.0% | 4.0%
CC(=O)c1ccc(NC(=O)c2cc(Cl)sc2Cl)cc1 | -32.2% | -5.8% | ? | -22.2% | -10.1% | 30.7%[activator] | -7.3% | -6.6%
O=C(Nc1cccc(Br)c1)c1c(O)c2c(n(Cc3ccccc3)c1=O)CCCC2 | 1.2% | -3.1% | 2.2% | . | . | 3.4% | . | .
COc1ccc(/C=N/N2CCOCC2)cc1COc1ccc(F)cc1 | 1.4% | . | 0.9% | 2.3% | 1.9% | 3.6% | . | .
Cc1ccc(OCC(=O)N/N=C/c2ccncc2)cc1 | -3.1% | -36.1% | -6.5% | -13.7% | 13.4% | 25.3% | -4.6% | -9.4%
